GALR2 agonist – GALR2 (human) receptor agonism | O43603 | GALR2-expressing cells, agonist activation read-out | activation, %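 (tested at 5 µM)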 | actives 0.48% (n = 140,000);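 active = above mean plus 3 SD of all compounds, about 5% in these data, not always enough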;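 also: 0% = vehicle buffer wells and 100% = reference agonist at full effect; tested in CHO reporter cells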
HSV replic up – HSV replication enhancement | actives 0.005% (n = 220,000) | HSV replication augmentation in cells, fold increase | maximum fold increase | AID 1956;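 active = peak rise of 1.5-fold or more in the series; inconclusive = self-fluorescent or not available for retest; tested in PC3 cells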;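 also: first round at 10 µM; read as green reporter fluorescence; hits show the peak of a series up to 25 µM; 1 = signal of infected wells without compound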
RGS16-Gao HTS – modulates binding between human RGS16 and Galphao. AID 1441. O15492+P09471. bead-based flow cytometry RGS16-Galphao binding, fluorescence; actives lie on both sides. actives 0.38% (n = 220,000). binding response (% of control), % at 10 µM;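 active = below 25% or above 175%, edge rows of some plates excepted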;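 also: Galphao activated by GDP with aluminum fluoride before binding; 100% = wells without compound and 0% = beads without RGS; some results beyond the cut were filed as inactive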
INS promoter inh – TRM-6 insulin promoter activity inhibition; TRM-6 cells (human fetal islet line), insulin promoter-eGFP reporter, imaging; reporter expression induced with tamoxifen; inhibition, % at 2 µM; actives 0.9% (n = 130,000);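 active = inhibition above the mean plus 3 SD, with well images judged a real hit on visual review, cut at about 60% in these data, passing the limit was not always enough; inconclusive = inhibition over the cutoff but images rejected on review; inactive = inhibition not above the cutoff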
PKD1 kinase inh – inhibitors of human PKD1 kinase; PKD1 kinase fluorescence polarization assay; inhibition, %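 (about 10 µM by stock and volumes)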; actives 0.056% (n = 200,000); AID 797;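 active = inhibition of 50% or more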;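 also: controls were vehicle for no effect and a reference inhibitor for full effect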
Target sequence (Q15139 whole entry, looked up): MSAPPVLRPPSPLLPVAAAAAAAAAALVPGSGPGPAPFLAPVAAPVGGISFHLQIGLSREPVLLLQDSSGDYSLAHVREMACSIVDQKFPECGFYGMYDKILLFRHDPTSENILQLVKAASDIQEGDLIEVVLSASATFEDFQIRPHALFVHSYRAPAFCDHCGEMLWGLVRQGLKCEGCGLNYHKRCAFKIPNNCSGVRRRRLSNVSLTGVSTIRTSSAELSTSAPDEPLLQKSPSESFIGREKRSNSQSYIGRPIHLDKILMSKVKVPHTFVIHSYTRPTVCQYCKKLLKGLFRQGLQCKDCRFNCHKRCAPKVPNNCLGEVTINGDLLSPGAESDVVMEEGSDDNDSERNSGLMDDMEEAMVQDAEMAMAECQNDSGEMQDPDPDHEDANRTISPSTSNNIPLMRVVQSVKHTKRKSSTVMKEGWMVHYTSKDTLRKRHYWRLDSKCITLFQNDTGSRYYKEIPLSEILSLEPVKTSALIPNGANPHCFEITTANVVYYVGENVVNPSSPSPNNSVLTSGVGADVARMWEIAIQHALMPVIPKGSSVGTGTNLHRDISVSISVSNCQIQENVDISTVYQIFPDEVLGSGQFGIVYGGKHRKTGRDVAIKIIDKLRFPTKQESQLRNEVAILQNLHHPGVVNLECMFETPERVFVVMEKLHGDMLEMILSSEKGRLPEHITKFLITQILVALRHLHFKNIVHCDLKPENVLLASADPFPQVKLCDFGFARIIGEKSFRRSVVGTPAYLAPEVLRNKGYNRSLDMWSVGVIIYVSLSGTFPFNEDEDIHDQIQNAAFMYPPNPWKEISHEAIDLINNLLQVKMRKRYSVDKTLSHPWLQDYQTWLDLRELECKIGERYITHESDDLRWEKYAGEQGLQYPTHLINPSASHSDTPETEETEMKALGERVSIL
INS promoter inh cell count – further read-out of INS promoter inh, marked with its call; normalized cell count, %; measured here: cell count, toxicity; reference of the scale not given here;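 cells exposed to compound for 48 h; stained nuclei by imaging scaled within each plate; lower means fewer cells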
HSV replic up primary fold – also measured in HSV replic up; calls as there; fold increase; compound at 10 µM; measured here: primary screen fold increase 10 uM; tested in PC3 cells;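 GFP signal in the first replicate; 1 = infected wells without compound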
* hit, by the source's call; i = inactive; ? = inconclusive; / = no result given.

SMILES	GALR2 agonist	HSV replic up	HSV replic up primary fold	RGS16-Gao HTS	INS promoter inh	INS promoter inh cell count	PKD1 kinase inh
CCN(CC)S(=O)(=O)c1ccc2[nH]cc(C(=O)NCCCN3CCCCC3C)c(=O)c2c1 (stereo unspecified)	-3.0	i	0.89	146	/	/	1
COc1ccc(NC(=O)NCc2cccnc2)cc1OC	-1.4	i	1.1	106	-400	68	3
O=C(NC1CCCCC1)C(c1ccccc1)N(C(=O)Cc1ccsc1)c1ccccc1 (stereo unspecified)	-3.1	i	0.82	105	16	71	-1
NS(=O)(=O)c1ccc(CCNC(=O)CN2CCN(c3ccccc3O)CC2)cc1	0.4	i	1	98	/	/	-6
CCN(Cc1ccccc1)C(=O)CSc1nncn1C	/	i	0.84	101	/	/	-2
CN(CC(=O)Nc1ccccc1F)CC(=O)Nc1ccccc1Br	/	i	1	105	36	149	-8
Cc1nc(NC(=O)c2ccc([N+](=O)[O-])cc2Cl)sc1C(=O)N(C)C	0.1	i	1	96	23	132	-2
CCNc1nc(NC(C)C)nc(OCCNS(=O)(=O)c2cc(C)ccc2C)n1	-0.9	i	0.99	73	-18	106	-1
O=C1C=CN(C(=O)Oc2ccccc2)CC1	-1.1	i	0.91	101	/	/	-7
CCCn1c(NC(=O)C2CCN(S(=O)(=O)c3cccs3)CC2)nc2ccccc21	-1.5	i	0.9	101	36	98	9
CC(NC(=O)OCc1ccccc1)C(=O)Oc1cc2oc(=O)cc(-c3ccccc3)c2cc1Cl (stereo unspecified)	0.5	i	1	97	12	90	-7
C=C1C2(C(=O)NCc3ccco3)CCC(C2)C1(C)C (stereo unspecified)	-0.6	i	0.9	101	-31	84	-3
CCC(=O)N/C(=N/c1nc(C)cc(C)n1)Nc1ccc(OC)cc1	-0.6	i	0.91	101	56	155	-3
CCC(NC(=S)Nc1ccccc1)C(=O)O (stereo unspecified)	0.3	i	1	101	-24	119	-10
O=C(CSc1nnc2c(Cl)cc(C(F)(F)F)cn12)Nc1ccc2c(c1)OCO2	-3.2	i	0.98	97	/	/	-10
CCc1nnc(NS(=O)(=O)c2ccc(NC(=S)NC(=O)/C=C/c3ccc(C(C)C)cc3)cc2)s1	0.1	i	0.88	106	-31	130	3
CCOC(=O)c1sc2nc(C)nc(NCc3cccnc3)c2c1C	/	i	0.97	99	/	/	-2
CCCCn1c(SCC(=O)OCC)nc2c1c(=O)[nH]c(=O)n2C	0.4	i	0.93	92	/	/	-2
CC1=NN(c2ccc([N+](=O)[O-])cc2)C(=O)/C1=C\N(C)C	-1.9	i	1	106	12	86	-2
COc1cccc(C(=O)NC2(C(F)(F)F)N=C3SCCN3C2=O)c1 (stereo unspecified)	-1.5	i	0.99	101	9	90	3
CC1(C)CC(=O)C2=C(C1)OC(N)=C(C#N)C21C(=O)N(Cc2ccccc2Cl)c2ccccc21 (stereo unspecified)	0.1	i	1	112	-33	119	-5
Nc1nc2c(F)cccc2s1	0.8	i	1	100	/	/	5
Cc1ccc([N+](=O)[O-])cc1NC(=O)Nc1ccc(S(N)(=O)=O)cc1	/	i	1	86	/	/	/
Cc1cc(=O)oc(C)c1C(=O)NCCc1ccc(F)cc1	0.6	i	0.95	103	13	69	-3
Cc1ccc(S(=O)(=O)CC(CN2CCOCC2)N2CCOCC2)cc1 (stereo unspecified)	/	i	1	106	50	122	3
O=C(NCC(=O)N1CCN(S(=O)(=O)/C=C/c2ccccc2)CC1)c1ccc(Cl)cc1	/	i	0.94	97	/	/	/
COc1ccccc1-n1c2nc3ccccc3nc2c2c(=O)n(-c3cc(C)cc(C)c3)cnc21	0.1	i	0.99	100	/	/	1
Oc1cccc(Nc2ncnc3ccccc23)c1	-0.2	/	/	102	3	126	-1
O=C(Nc1ccccc1C(=O)N1CCCCCC1)c1ccc(Cl)cc1	/	i	0.86	101	-93	77	-2
Cc1ccc(CN2C(=O)CCC2C(=O)NCc2ccco2)cc1 (stereo unspecified)	-2.4	i	0.99	108	-31	88	17
O=C1Nc2cc(Cl)c(Cl)cc2N(O)N1c1cccc(Cl)c1	-0.8	/	/	87	-49	74	3
CC(=O)Nc1ccc(S(=O)(=O)Nc2cccc(-c3cn4cccnc4n3)c2)cc1	/	i	1.1	98	/	/	-1
Cc1cc(S(=O)(=O)Nc2ccc3c(c2)COC3=O)ccc1F	/	i	0.95	105	/	/	-5
O=C(Cn1ncc(N2CCOCC2)c(Br)c1=O)c1ccc(Cl)cc1	/	i	1	109	-40	96	-6
Cc1ccccc1-n1c(-c2ccco2)n[nH]c1=S	-1.6	i	0.9	102	27	124	1
Cc1ccccc1N(C(=O)Cn1nnc(-c2ccc(F)cc2)n1)C(C(=O)NC(C)(C)C)c1ccncc1 (stereo unspecified)	/	i	0.96	102	15	65	0

Next part; the last seven above are carried over.
SMILES	GALR2 agonist	HSV replic up	HSV replic up primary fold	RGS16-Gao HTS	INS promoter inh	INS promoter inh cell count	PKD1 kinase inh
Cc1ccc(CN2C(=O)CCC2C(=O)NCc2ccco2)cc1 (stereo unspecified)	-2.4	i	0.99	108	-31	88	17
O=C1Nc2cc(Cl)c(Cl)cc2N(O)N1c1cccc(Cl)c1	-0.8	/	/	87	-49	74	3
CC(=O)Nc1ccc(S(=O)(=O)Nc2cccc(-c3cn4cccnc4n3)c2)cc1	/	i	1.1	98	/	/	-1
Cc1cc(S(=O)(=O)Nc2ccc3c(c2)COC3=O)ccc1F	/	i	0.95	105	/	/	-5
O=C(Cn1ncc(N2CCOCC2)c(Br)c1=O)c1ccc(Cl)cc1	/	i	1	109	-40	96	-6
Cc1ccccc1-n1c(-c2ccco2)n[nH]c1=S	-1.6	i	0.9	102	27	124	1
Cc1ccccc1N(C(=O)Cn1nnc(-c2ccc(F)cc2)n1)C(C(=O)NC(C)(C)C)c1ccncc1 (stereo unspecified)	/	i	0.96	102	15	65	0
O=C(CN(Cc1ccccc1)C(=O)CCC(=O)Nc1ccccn1)NCc1ccco1	-0.9	i	1	87	/	/	-6
O=C(Cc1cccc2ccccc12)NNC(=O)Nc1cccc(Cl)c1	-3.0	i	0.73	102	43	148	-13
COc1ccc(NC(=O)c2c3c(nc4ccccc24)CCC3)cc1	-2.3	i	0.95	93	0	86	-5
CSC1=NC2(CC(c3ccccc3)Oc3cc(O)ccc32)CC(C)(C)N1 (stereo unspecified)	20*	/	/	109	-11	123	0
CSCCC(NC(=O)CCN1C(=O)c2ccccc2C1=O)C(=O)O (stereo unspecified)	-2.1	i	0.97	103	-6	146	-4
COc1cccc(-c2ccc(C#N)c(OC(=O)c3c(Cl)cccc3Cl)n2)c1	-1.5	i	0.71	98	20	66	-3
Cc1cc(C(=O)CSc2nnc(-c3ccccc3)n2-c2ccccc2)c(C)n1-c1ncn[nH]1	-1.9	i	0.93	145	/	/	-1
O=C(N/N=C/c1ccc(Br)cc1)c1ccccc1-n1cccc1	-2.6	i	0.83	102	-6	134	-9
C/C(CC(=O)Nc1ccc(Cl)cc1Cl)=N\NC(=O)c1ccncc1	/	i	1	96	/	/	/
CCn1c(SCC#N)nc2ccccc2c1=O	/	i	1.2	105	/	/	/
COc1cc(-c2onc3ccc(Br)cc23)cc(OC)c1OC	/	i	0.88	100	/	/	-5
CCCn1c(C)cc(=O)c2cc(NC(=O)c3cnccn3)ccc21	-1.6	i	0.97	101	/	/	-4
CN(C)/C=C/C1=CC(=O)CC(C)(C)C1	/	i	1	101	-45	112	-10
Cc1cccc(N2CCN(C(=O)C3CCCN(S(=O)(=O)c4c(C)noc4C)C3)CC2)c1C (stereo unspecified)	-0.3	i	1	/	/	/	5
CCOC(=O)c1c(NC(=O)CSc2nnc(Cc3csc(N)n3)n2C)sc(C)c1C	-0.2	i	0.88	104	-350	74	-6
CCOc1ccc(C(C(=O)NC2CCCC2)N(CCCO)C(=O)c2ccc(-c3ccccc3)[nH]2)cc1 (stereo unspecified)	/	i	0.86	117	-17	93	-3
O=C(COC(=O)c1cc2ccccc2o1)c1ccccc1	1.1	i	0.86	103	0	76	5
CC1CCC2(CC1)NC(=O)N(CC(=O)NC(=O)Nc1ccc3c(c1)OCCO3)C2=O (stereo unspecified)	/	i	1	105	/	/	/
Cc1ccc2nc(NC(=O)COC(=O)c3ccncc3)sc2c1	/	i	1	112	55	151	-7
COc1cc2c3nnc(-c4ccc(F)cc4)c-3cn(Cc3ccccc3F)c2cc1OC	/	?	/	127	i	64	1
Cc1cccc(Oc2cc(N)cc([N+](=O)[O-])c2)c1	-2.2	/	/	101	/	/	-6
COc1ccc2c(c1)CC/C(=C/c1ccco1)C2=O	-0.1	i	1.2	111	-33	99	3
COCCn1c(-c2ccccc2Cl)nc2c(c(=O)c3ccccc3n2C)c1=O	-0.1	i	0.96	148	44	74	-9
CCOC(=O)c1cnc(SCc2ccc(C(C)(C)C)cc2)nc1N	-2.9	i	0.97	100	i	68	-4
Oc1ccc(-c2n[nH]c(C(F)(F)F)c2-c2ccccc2)c(O)c1	/	i	1.1	93	/	/	-4
O=C(CSc1ncn[nH]1)Nc1ncc(C(F)(F)F)cc1Cl	/	i	1	103	/	/	-8
COc1cccc2cccc(/C=N/n3cnnc3)c12	/	i	0.81	107	0	150	-3
Cc1cccc(C)c1NC(=O)C1(N(C(=O)c2ccccn2)c2ccc(O)cc2)CCCCC1	/	i	1.1	98	/	/	-6
O=[N+]([O-])c1ccc(O)c(/C=N/Nc2nn[nH]n2)c1	/	i	0.99	103	/	/	2
CC(C)(C)SCCNC(=O)c1ccc(Cl)c(S(=O)(=O)N2CCOCC2)c1	-1.9	i	1	/	6	146	-9
CCS(=O)(=O)N1CCC(C(=O)Nc2cc([N+](=O)[O-])ccc2C)CC1	/	i	0.93	118	/	/	/
COc1ccc(Cn2nnnc2CN2CCc3ccccc3C2)cc1	0.6	i	0.81	116	-58	123	-3
O=C(CCNC(=O)c1ccco1)Nc1cccc(Br)c1	/	i	0.94	100	/	/	-9
CCc1nc(N2CCC3(CC2)OCCO3)c2nnn(Cc3ccccc3Cl)c2n1	-0.8	i	0.99	102	7	75	2
COc1cc2c(cc1OC)-c1cc3ccc4c(c3c[n+]1CC2)OCO4	-0.6	i	0.98	96	20	88	22
COc1cccc(OC)c1C(=O)NCCSC1CCCCC1	/	i	0.99	113	/	/	-3
N#C/C(=C\c1c[nH]c2ccccc12)C(N)=O	/	i	0.89	102	/	/	/
Cc1cccnc1CN1CCN(C(=O)CCc2nnc(CCc3ccccc3)o2)CC1	/	i	0.96	108	/	/	-1
CC1CCN(CCOc2ccccc2-c2ccccc2)CC1	-2.0	/	/	94	-85	116	-9
COC(=O)C1=C(C)Nc2ncnn2C1c1ccccn1 (stereo unspecified)	-0.6	i	0.79	101	3	59	-11
Cc1c(Cl)cccc1NC(=O)CC1NCCNC1=O (stereo unspecified)	-0.7	i	0.96	98	27	51	-7
COc1cc(NC(=O)CSc2ccc3c(c2)OCCO3)cc(OC)c1OC	-2.1	i	1.1	102	35	64	-6
CC1CCC2(CC1)NC(=O)N(CC(=O)Nc1ccc(N3CCOCC3)cc1)C2=O (stereo unspecified)	-0.9	i	1	103	/	/	7
O=C1CC(C(=O)Nc2cccc3ccccc23)C2(CCCC2)O1 (stereo unspecified)	-1.8	i	0.99	98	22	91	-1
O=C(NCCCCC(NC(=O)c1ccc([N+](=O)[O-])cc1)C(=O)O)c1ccc([N+](=O)[O-])cc1 (stereo unspecified)	0.8	i	0.99	100	24	58	-3
O=C(CN1CCN(S(=O)(=O)/C=C/c2ccccc2)CC1)Nc1ccccc1N1CCOCC1	/	i	0.97	104	/	/	/
O=C(Nc1ccccc1)NC1(C(=O)N2CCN(c3ncccn3)CC2)CCCCC1	-0.9	i	0.98	101	/	/	-2
COC(=O)c1ccc(N/C=C\C(=O)c2ccc3c(c2)OCO3)cc1	/	i	1.1	94	50	131	6
COc1ccc(NS(=O)(=O)c2ccc3c(c2)NC(=O)CO3)cc1	/	i	0.86	102	54	102	4
COc1ccc2cc(CN(Cc3cccnc3)S(=O)(=O)c3ccccc3)c(=O)[nH]c2c1	-0.7	i	0.77	93	/	/	0
